# Vaccinia stage: Vaccinia orthopox stage-specific inhibition; 0.01% of 89,000 active; Vaccinia-infected cells, mCherry/Venus stage reporter fluorescence; hits give low values; some inactives read as strong as hits; activity change (mCherry), % (no concentration beside the values); AID 1053133;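 active means mCherry past -33% and 40 or more points under the early reporter, replicates agreeing; inconclusive means past -33% without that gap or agreement; tested in A549 cells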;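 further: scaled between vehicle wells and reference inhibitor wells; 23 nL library stock went into each well; one replicate is shown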
# Vaccinia stage Venus: further read-out of Vaccinia stage, marked with its call; activity change (Venus), %; measured here: Venus reporter, other viral stage;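 negative = less Venus signal; first of two replicates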
# The depositor's hits bear a star; u = inconclusive; x = no result given; & = joins results of further samples. The list is partial; rates above refer to the full screens.
Structure | Vaccinia stage | Vaccinia stage Venus
C[C@H]1CN([C@@H](C)CO)C(=O)c2cc(NC(=O)Cn3cnnn3)ccc2O[C@H]1CN(C)Cc1ccc2c(c1)OCO2 | 11.6 | 2.8
Cc1noc(C)c1NC(=O)Nc1ccc2c(c1)C(=O)N([C@H](C)CO)C[C@@H](C)[C@@H](CN(C)Cc1ccc3c(c1)OCO3)O2 | 9.4 | 1.8
COc1ccc(S(=O)(=O)Nc2ccc3c(c2)C(=O)N([C@@H](C)CO)C[C@@H](C)[C@H](CN(C)C)OCCCC[C@@H](C)O3)cc1 | -10.8 | -5.4
C[C@@H]1CN([C@@H](C)CO)C(=O)c2cc(C3=CCCCC3)cnc2O[C@@H]1CN(C)Cc1cccc(F)c1 | -22.5 | -16.3
C[C@H](CO)N1C[C@H](C)[C@@H](CN(C)C(=O)C2CCCCC2)Oc2ncc(C#Cc3cccc(F)c3)cc2C1=O | -20.9 | -15.8
O=C(C[C@H]1CC[C@H](NS(=O)(=O)c2ccc(F)cc2)[C@H](CO)O1)N1CCN(c2ccccc2)CC1 | 11.2 | 7.9
COc1ccc(S(=O)(=O)N(C)C[C@H]2Oc3c(NC(=O)CCCCCC(=O)Nc4ccccc4N)cccc3C(=O)N([C@@H](C)CO)C[C@@H]2C)cc1 | 30.8 | 18.4
C[C@@H]1CN([C@@H](C)CO)S(=O)(=O)c2ccc(C#CC3(O)CCCC3)cc2O[C@H]1CN(C)C(=O)Nc1ccc(F)cc1 | -6.5 | 0.1
Cc1ccc(S(=O)(=O)N(C)C[C@@H]2Oc3ccc(N(C)C)cc3C(=O)N([C@@H](C)CO)C[C@H]2C)cc1 | 2.6 | -2.9
CCC(=O)N1[C@H](C#N)[C@H](c2ccccc2-c2cccc(C)c2)[C@H]1CO | 1.7 | 0.3
N#C[C@@H]1[C@H](c2ccccc2)[C@@H](CO)N1S(=O)(=O)c1ccc(-c2ccccc2)cc1 | -33.3 | -29.2
COCC(=O)Nc1ccc2c(c1)[C@@H]1C[C@@H](CC(=O)NCCN3CCCCC3)O[C@H](CO)[C@@H]1O2 | -9.3 | -1.4
C[C@H]1CN([C@@H](C)CO)C(=O)CCCn2nncc2CO[C@@H]1CN(C)C(=O)C1CC1 | 15.2 | 8.8
C[C@@H]1CN([C@@H](C)CO)C(=O)c2cc(NC(=O)Cc3ccccc3)ccc2O[C@@H](C)CCCCO[C@H]1CN(C)S(=O)(=O)c1ccc(Cl)cc1 | -4.0 | -5.6
COc1ccc(C#Cc2ccc3c(c2)[C@]2(C(=O)N3)[C@H](c3ccc(O)cc3)N3[C@H](c4ccccc4)[C@H](c4ccccc4)OC(=O)[C@H]3[C@@H]2C(=O)N2CCCCCCC2)cc1 | -14.5 | -13.6
C[C@H]1CN([C@@H](C)CO)C(=O)c2cccc(NC(=O)c3nc4ccccc4s3)c2O[C@@H]1CN(C)Cc1ccc(C(=O)Nc2ccccc2N)cc1 | 24.6 | 10.4
CN(C)C(=O)C[C@H]1CC[C@@H]2[C@H](COc3ccc(NC(=O)c4ccc(F)cc4)cc3C(=O)N2C)O1 | 9.2 | 10.3
O=C(Nc1ccc(Cl)cc1)N[C@@H]1CC[C@H](CCNC(=O)c2ccccc2F)O[C@H]1CO | -1.6 | -4.4
CNC[C@H]1Oc2ccc(NS(=O)(=O)c3cn(C)cn3)cc2C(=O)N([C@@H](C)CO)C[C@@H]1C | -2.7 | 5.5
CC(C)(C)[S@@](=O)N1Cc2cc(C(=O)N3CCCCC3)nc(-c3cccc(-c4ccccc4F)c3)c2[C@H]1CCO | -28.7 | 3.0

Structure | Vaccinia stage | Vaccinia stage Venus
Cc1ccc(S(=O)(=O)Nc2ccc3c(c2)C(=O)N([C@@H](C)CO)C[C@H](C)[C@H](CN(C)C(=O)Cc2ccccc2)OCCCC[C@@H](C)O3)cc1 | -4.3 | -8.5
N#C[C@@H]1[C@@H](c2ccc(C#Cc3ccccc3F)cc2)[C@@H](CO)N1C(=O)c1cccnc1 | 12.4 | 12.6
C[C@H](CO)N1C[C@H](C)[C@@H](CN(C)C(=O)Nc2cccc3ccccc23)Oc2ccc(NS(C)(=O)=O)cc2CC1=O | 10.7 | 12.7
CCCNC(=O)Nc1ccc2c(c1)OC[C@@H](C)N(C(=O)CC)C[C@@H](C)[C@@H](OC)CN(C)C2=O | -4.1 | -4.7
Cc1ccc(S(=O)(=O)N(C)C[C@H]2Oc3ccc(NC(=O)Nc4ccc(F)cc4)cc3C(=O)N([C@H](C)CO)C[C@H]2C)cc1 | -14.1 | -5.5
COc1cccc(C#Cc2ccc3c(c2)O[C@@H](CN(C)C(C)=O)[C@@H](C)CN([C@H](C)CO)S3(=O)=O)c1 | u | x
COc1ccc(CNC(=O)C[C@H]2C=C[C@@H](NC(=O)c3cccc(F)c3)[C@H](CO)O2)cc1 | 3.2 | 0.5
O=C(C[C@@H]1CC[C@@H]2[C@H](COC[C@@H](O)CN2S(=O)(=O)c2ccc(F)cc2)O1)NCC1CC1 | 8.2 | 8.5
O=S(=O)(N[C@H]1CC[C@@H](CCn2cc(-c3cccnc3)nn2)O[C@@H]1CO)c1ccc(Cl)cc1 | -28.2 | -26.5
C[C@@H]1CN([C@@H](C)CO)C(=O)c2cc(NC(=O)NC3CCCCC3)ccc2O[C@@H]1CN(C)Cc1ccc(Cl)c(Cl)c1 | u | x
C[C@@H]1CN([C@H](C)CO)C(=O)c2cccc(NC(=O)Nc3ccc4c(c3)OCO4)c2O[C@@H]1CN(C)S(C)(=O)=O | 18.1 | 10.0
C[C@H]1CN([C@@H](C)CO)C(=O)c2cccc(NC(=O)Nc3cccc4ccccc34)c2O[C@@H]1CN(C)S(=O)(=O)c1cccs1 | 19.0 | -1.7
CO[C@H](CN(C)C(=O)c1ccc2c(c1)OCO2)[C@H](C)CN([C@@H](C)CO)S(=O)(=O)c1ccc(C)cc1 | -9.9 | -2.9
N#C[C@@H]1[C@H](c2ccc(C#CC3CCCCC3)cc2)[C@H](CO)N1C(=O)Nc1ccc(F)cc1 | -30.6 | -16.2
O=C(C[C@H]1C[C@@H]2c3cc(NC(=O)C4CCC4)ccc3O[C@@H]2[C@H](CO)O1)NCC1CC1 | 5.5 | 5.8
O=C(NCC(F)(F)F)[C@H]1[C@H](CO)[C@H]2Cn3c(cccc3=O)[C@@H]1N2CC1CCCC1 | -5.7 | -7.4
C[C@@H]1CCCCO[C@H](CN(C)C(=O)Nc2ccccc2)[C@H](C)CN([C@@H](C)CO)C(=O)c2cc(NS(=O)(=O)c3ccc(Cl)cc3)ccc2O1 | 1.0 | -8.7
C[C@@H]1CN([C@@H](C)CO)C(=O)CCCn2nncc2CO[C@H]1CN(C)S(=O)(=O)c1ccc(Cl)cc1 | 11.0&4.2 | 6.7&-1.1
C[C@H](CO)N1C[C@H](C)[C@@H](CN(C)C(=O)Nc2cccc(F)c2)Oc2ncc(C3=CCCC3)cc2C1=O | -29.4 | -23.3
COCC#Cc1cnc2c(c1)C(=O)N([C@H](C)CO)C[C@@H](C)[C@@H](CN(C)C(=O)c1cccc(F)c1)O2 | 0.5 | 7.7

# Rewritten with values under each structure: 3 of the compounds above.
# Screens in order – Vaccinia stage | Vaccinia stage Venus
N#C[C@@H]1[C@@H](c2ccc(C#Cc3ccccc3F)cc2)[C@@H](CO)N1C(=O)c1cccnc1
 : 12.4 | 12.6
O=C(C[C@@H]1CC[C@@H]2[C@H](COC[C@@H](O)CN2S(=O)(=O)c2ccc(F)cc2)O1)NCC1CC1
 : 8.2 | 8.5
COc1ccc(CNC(=O)C[C@H]2C=C[C@@H](NC(=O)c3cccc(F)c3)[C@H](CO)O2)cc1
 : 3.2 | 0.5

# Going on with the list.
Structure | Vaccinia stage | Vaccinia stage Venus
COc1ccc(S(=O)(=O)N(C)C[C@H]2OCCCC[C@H](C)Oc3ccc(NC(=O)Nc4cccc5ccccc45)cc3C(=O)N([C@@H](C)CO)C[C@@H]2C)cc1 | 7.3 | 11.2
COc1ccc(NC(=O)Nc2ccc3c(c2)C(=O)N([C@H](C)CO)C[C@H](C)[C@H](CN(C)S(=O)(=O)c2ccc(C)cc2)OCCCC[C@H](C)O3)cc1 | 12.7 | 20.0
Cc1ccc(S(=O)(=O)N(C)C[C@H]2Oc3c(NS(=O)(=O)c4cccs4)cccc3C(=O)N([C@H](C)CO)C[C@@H]2C)cc1 | -3.3 | 6.2
CN1C(=O)c2cc(NC(=O)c3ccccc3F)ccc2OC[C@H]2O[C@H](CC(=O)NCc3ccc4c(c3)OCO4)CC[C@@H]21 | 2.4 | -1.8
CCCNC(=O)N(C)C[C@@H]1Oc2ncc(Br)cc2C(=O)N([C@@H](C)CO)C[C@@H]1C | 16.6 | 3.6
C[C@@H]1CN([C@@H](C)CO)C(=O)c2cccc(N(C)C)c2O[C@H]1CN(C)Cc1ccc(Oc2ccccc2)cc1 | -0.6 | 1.6
C/C=C/c1cnc2c(c1)C(=O)N([C@@H](C)CO)C[C@@H](C)[C@@H](CN(C)S(=O)(=O)c1cccs1)O2 | 11.5 | 13.5
O=C(C[C@H]1CC[C@H](NS(=O)(=O)c2ccc(F)cc2)[C@H](CO)O1)NCCN1CCCCC1 | -8.8 | -2.5
COc1cccc(-c2ccc([C@@H]3[C@H](CO)N4C(=O)CN(C(=O)c5ccncc5)C[C@@H]34)cc2)c1 | 8.9 | 4.7
C[C@@H]1CN([C@H](C)CO)S(=O)(=O)c2ccc(-c3ccccc3)cc2O[C@@H]1CN(C)C(=O)C1CCCCC1 | u | x
O=C(C[C@H]1C[C@H]2c3cc(NC(=O)CC4CC4)ccc3O[C@H]2[C@@H](CO)O1)NCc1cccnc1 | 6.2 | 2.1
C[C@H]1CCCCO[C@H](CN(C)S(=O)(=O)c2cccs2)[C@@H](C)CN([C@@H](C)CO)C(=O)c2cc(NS(=O)(=O)c3cn(C)cn3)ccc2O1 | 16.5 | 6.9
COc1ccc2c3c(n(C)c2c1)[C@@H](CO)N(Cc1cccc(Cl)c1)CC31CN(C(=O)C2CC2)C1 | -3.4 | 0.9
CC(C)NC(=O)N[C@@H]1CC[C@@H](CCNS(=O)(=O)c2ccc(F)cc2)O[C@@H]1CO | -9.2 | -4.5
C/C=C/c1ccc2c(c1)O[C@H](CN(C)CC1CCOCC1)[C@H](C)CN([C@@H](C)CO)S2(=O)=O | 6.4 | -2.2
C[C@@H]1CCCCO[C@@H](CN(C)CC2CC2)[C@H](C)CN([C@H](C)CO)C(=O)c2cc(NC(=O)Nc3ccccc3)ccc2O1 | -0.9 | -5.8
C[C@H]1CN([C@@H](C)CO)C(=O)Cc2cc(NC(=O)Cc3cn(C)c4ccccc34)ccc2O[C@@H]1CN(C)S(=O)(=O)c1cccs1 | -3.4 | -5.3
CO[C@@H]1CN(C)C(=O)c2cc(NC(C)=O)ccc2OC[C@@H](C)N(CC2CC2)C[C@@H]1C | 3.2 | 1.4
COc1ccc(CN(C)C[C@H]2Oc3ccc(NC(=O)Nc4ccccc4)cc3C(=O)N([C@@H](C)CO)C[C@@H]2C)cc1 | 4.6 | 2.1
C[C@@H]1CN([C@@H](C)CO)C(=O)c2cccc(NC(=O)Nc3ccc(F)cc3)c2O[C@@H]1CN(C)S(=O)(=O)c1ccccc1 | u | x

canonical_smiles	Vaccinia stage	Vaccinia stage Venus
CC(=O)N(C)C[C@H]1Oc2cc(C#CCC(C)C)ccc2S(=O)(=O)N([C@@H](C)CO)C[C@H]1C	-2.0	-2.8
C[C@H](NC(=O)[C@H]1[C@H](CO)[C@H]2Cn3c(ccc(-c4ccccc4F)c3=O)[C@@H]1N2C)c1ccccc1	-9.2	-6.6
C[C@@H]1CN([C@H](C)CO)C(=O)c2cc(C#CC3CCCC3)cnc2O[C@@H]1CN(C)Cc1ccncc1	2.1	-1.8
CCN1CC(=O)N2[C@H](CO)[C@H](c3ccc(Br)cc3)[C@H]2C1	-3.5	-6.7
CC1=C2[C@@H](c3ccccc3)OB(O)C[C@@H]2n2c(=O)n(-c3ccccc3)c(=O)n2C1	15.4	14.8
COc1ccc(S(=O)(=O)N(C)C[C@H]2Oc3cc(C#CC4CCCCC4)ccc3S(=O)(=O)N([C@H](C)CO)C[C@@H]2C)cc1	-28.4	-30.0
COCCNC(=O)C[C@@H]1C[C@@H]2c3cc(NC(=O)CC4CC4)ccc3O[C@@H]2[C@H](CO)O1	6.9	5.2
COc1ccc(S(=O)(=O)N(C)C[C@H]2OCCCC[C@H](C)Oc3ccc(NS(=O)(=O)c4ccc(F)cc4)cc3C(=O)N([C@H](C)CO)C[C@H]2C)cc1	-10.4	-7.7
NCC[C@H]1CC[C@H](NC(=O)Nc2ccc(F)cc2)[C@H](CO)O1	-1.4	8.0
C[C@H]1CN([C@@H](C)CO)C(=O)c2cc(NS(=O)(=O)c3ccc(F)cc3)ccc2O[C@@H]1CN(C)Cc1ccc(-c2ccccc2)cc1	-20.2	-18.7
CO[C@@H]1CN(C)C(=O)c2ccc(NC(=O)c3nc4ccccc4s3)cc2OC[C@H](C)N(Cc2ccncc2)C[C@@H]1C	-27.6	-21.1
O=C(Nc1cccc(F)c1)N1CCCCN2[C@@H](CO)[C@@H](c3ccc(C#Cc4ccccc4)cc3)[C@@H]2C1	u	x

canonical_smiles	Vaccinia stage	Vaccinia stage Venus
CCCN(C)C[C@H]1OCCCC[C@@H](C)Oc2ccc(NS(=O)(=O)c3ccc(C)cc3)cc2C(=O)N([C@H](C)CO)C[C@@H]1C	-3.6	-8.8
CO[C@H]1CN(C)C(=O)c2ccc(NC(=O)NC(C)C)cc2OC[C@H](C)NC[C@@H]1C	2.9	13.9
O=C(Nc1ccccc1F)N1CCCCN2[C@H](CO)[C@@H](c3ccc(-c4cccnc4)cc3)[C@@H]2C1	33.4	14.7
CO[C@@H]1CC[C@H]2CCN(C)C(=O)[C@H](C)N(C)C(=O)c3cc(C#N)ccc3OC[C@H]1O2	14.8	3.9
CO[C@H]1CN(C)C(=O)c2ccc(NC(=O)Nc3ccccc3)cc2OC[C@H](C)N(C(C)=O)C[C@@H]1C	11.3	22.3
O=C(C[C@H]1CC[C@@H]2[C@H](COC[C@@H](O)CN2Cc2cccc(C(F)(F)F)c2)O1)NCc1ccncc1	-4.1	0.4
